# Compound activity as filed in PubChem.
# Cruzain noTriton: blocks cruzain activity in detergent-free assay; P25779; purified cruzain, Z-FR-AMC fluorescence, no detergent; Potency, µM, for the others: max response, negative = inhibition, most hits filed as inhibitors; 2.3% of 200,000 active; AID 1476;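 also: plate controls were enzyme without inhibitor for no effect and buffer without enzyme for full effect; nearly all actives have a fitted effect of over 40% in size; top concentration of the series not given in the record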
# Target sequence (P25779 123-467 limits assumed): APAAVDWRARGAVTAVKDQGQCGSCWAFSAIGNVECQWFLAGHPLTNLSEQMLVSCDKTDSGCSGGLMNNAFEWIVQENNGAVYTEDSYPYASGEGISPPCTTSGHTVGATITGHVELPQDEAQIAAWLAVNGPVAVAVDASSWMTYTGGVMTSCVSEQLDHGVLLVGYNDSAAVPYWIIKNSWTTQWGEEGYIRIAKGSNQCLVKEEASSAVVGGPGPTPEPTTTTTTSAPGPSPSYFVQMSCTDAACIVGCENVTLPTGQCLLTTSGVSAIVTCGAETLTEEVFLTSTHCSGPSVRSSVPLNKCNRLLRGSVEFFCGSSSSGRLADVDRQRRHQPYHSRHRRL
#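 Detergent-free condition (0.00005% Triton X-100) in acetate buffer pH 5.5 with DTT. 1.5 nM enzyme and compound were pre-mixed 15 min, then 2 uM Z-FR-AMC substrate added; reaction progress from fluorescence change between first and third reads (60 s).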
# SARS PLpro yeast: inhibitors of SARS-CoV papain-like protease in yeast; S. cerevisiae expressing SARS-CoV PLpro, growth rescue; control for the full effect not named in the record; Potency, µM (top dose mostly 32.9 µM), inactives show top-dose activity, positive = growth rescue; 0.19% of 330,000 active; AID 485353; active means well fitted rising curve with a large enough effect; inconclusive means small, poorly fitted or top-dose-only effect; inactive means no such curve, though single readings can be large or run the other way; also: 0% is about no effect; nearly all actives have a fitted effect of over 55% in size; growth read by luminescence after 48 h
# NS1 function inh: influenza NS1 inhibition; Potency, µM (titrated, usually from 46.1 µM), without a hit: at the top dose activity, positive = more growth; 0.4% of 270,000 active; AID 2326; S. cerevisiae slowed by influenza A NS1, growth recovery by OD600; active means well fitted rising curve with a large enough effect; inconclusive means small, poorly fitted or top-dose-only effect; inactive means no such curve, though single readings can be large or run the other way; also: nearly all actives have a fitted effect of over 50% in size
#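 In this qHTS, NS1 from influenza A is expressed in budding yeast, where it slows growth. Cells are switched from glucose to 2% galactose medium (pH 6.0, -URA), treated with compound, and growth recovery is read at OD600.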
# LASV entry inh: blocks Lassa virus binding to or entry into cells; Lassa virus pseudotype entry inhibition, cell reporter; control for the full effect not named in the record; Potency, µM (titrated, usually from 37.9 µM), inactives show at the highest dose activity change, negative = inhibition, most hits filed as inhibitors; 1.2% of 300,000 active; AID 540256; active means well fitted inhibition curve with a large enough effect; inconclusive means small, poorly fitted or top-dose-only effect, or effect the other way; inactive means flat fitted curve, though single readings scatter; tested in HEK293 cells; also: % is scaled to controls: 0 for no effect and ±100 for the full control effect; nearly all actives have a fitted effect of over 50% in size; luciferase read-out
# RE007 growth inh: less growth of the S. pombe RE007 Vpr strain; S. pombe RE007 Vpr strain, BacTiter-Glo ATP luminescence, 24 h; control for the full effect not named in the record; Potency, µM (doses to about 92.2 µM), without a hit: top-dose activity change, negative = less growth; 0.21% of 360,000 active; AID 651644; active = well fitted falling curve with a large enough effect; inconclusive = small, poorly fitted or top-dose-only effect; inactive = no such curve, though single readings can be large or run the other way;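 also: % is scaled to controls: 0 for no effect and ±100 for the full control effect; nearly all actives have a fitted effect of over 50% in size; the assay follows cell death caused by Vpr and the record does not say whether a fall means rescue or toxicity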
#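 Fission yeast strain RE007, carrying one chromosomally integrated HIV-1 vpr copy, was seeded at OD 0.01 in PMG+AL medium with 23 nL pinned compound. After 24 h at 30 °C and 99% humidity, viability was read by BacTiter-Glo luminescence.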
# Cruzain inh Det: cruzain (T. cruzi) inhibition with detergent; purified cruzain, Z-FR-AMC fluorescence, 0.01% Triton; Potency, µM, inactives show max response, negative = inhibition, usual class: inhibitors; AID 1478; P25779; 0.43% of 200,000 active;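 also: plate controls were neutral wells for no effect and buffer without enzyme for full effect; nearly all actives have a fitted effect of over 40% in size; top concentration of the series not given in the record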
#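 In this qHTS format, compounds are incubated with 1.5 nM cruzain for 15 min at room temperature before 2 uM Z-FR-AMC is added. Release of AMC is followed at 360/450 nm, and progress is taken as the 60 s fluorescence difference.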
# MARV entry inh: blocks Marburg virus binding to or entry into cells. Potency, µM (top dose mostly 37.8 µM), for inactives: top-dose activity change, negative = inhibition, most hits filed as inhibitors. AID 540276. 1.8% of 300,000 active. Marburg virus pseudotyped entry inhibition, cell reporter; control for the full effect not named in the record; about a third of the inactives were read at about 46 µM; active = well fitted inhibition curve with a large enough effect; inconclusive = small, poorly fitted or top-dose-only effect, or effect the other way; inactive = flat fitted curve, though single readings scatter; tested in HEK293 cells; about a fifth of its hits are not listed in these tables; also: % is scaled to controls: 0 for no effect and ±100 for the full control effect; luciferase read-out
# StopGo reporter: lowers the luciferase signal of an FMDV 2A StopGo reporter; human cells with a luciferase reporter of 2A StopGo recoding; control for the full effect not named in the record; Potency, µM (series often up to 57.9 µM), inactives show at the highest dose signal change, negative = less light; 1.2% of 410,000 active; active = well fitted falling curve with a large enough effect; inconclusive = small, poorly fitted or top-dose-only effect; inactive = no such curve, though single readings can be large or run the other way; tested in HEK293T cells; also: % is scaled to controls: 0 for no effect and ±100 for the full control effect; nearly all actives have a fitted effect of over 45% in size; luciferase light after 4 h
# Active calls of the source: *; u = inconclusive; x = not tested or not shown; [ ] = dose if it differs, or a comment. Unless noted, calls follow the shape of the dose curve; as a rule, active = well fitted curve in the direction sought with a large enough effect; inconclusive = small, poorly fitted or top-dose-only effect, or another doubt; inactive = no such curve, though single readings can be large; an effect the other way counts as inactive or inconclusive. Potency is read from the fitted curve at half-maximal effect.
# The line under a structure holds: Cruzain noTriton | SARS PLpro yeast | NS1 function inh | LASV entry inh | RE007 growth inh | Cruzain inh Det | MARV entry inh | StopGo reporter
COc1ccc(N(CC(=O)N2CCN(C)CC2)S(=O)(=O)c2ccccc2)cc1OC
  -6% | 8% | -2% | -9% | u | 6.5% | 13% | -4%
Cc1ccccc1NC(=O)C1c2cccc[n+]2CC(=O)N1c1c(C)cccc1C (stereo not drawn)
  -1% | -7% | 6% | 6% | -7% | -1.4% | -9% | 19%
COC(=O)CSc1nc(NC(C)(C)C)nc(N(C)C)n1
  x | 2% | x | -22% | -6% | x | -4%[46.1 µM] | 62%[activator]
COc1ccc(OCC(=O)N2CCC(Cc3ccccc3)CC2)cc1
  x | -13% | -11% | u | 3% | x | 29%[46.1 µM] | -10%
CCCCn1c2c(c(=O)n(C)c1=O)C(CC(=O)OCC(=O)Nc1cccc(C(F)(F)F)c1)C(=O)N2 (stereo not drawn)
  27% | 1% | 11% | 5% | -11% | -11% | 3% | u
COc1ccc(C)cc1NC(=O)CN1CCN(c2ccc(F)cc2)CC1
  9% | -9% | -76% | u | 0% | -2.2% | u | u
CC1=C(C(=O)OCc2ccccc2)C(c2ccco2)C2=C(CC(C)(C)CC2=O)N1 (stereo not drawn)
  1% | -11% | -19% | u | 7% | -6.6% | u | u
COc1c(Br)cc(Br)cc1/C=N/NC(=O)c1cccnc1
  x | -2% | -38% | x | 5% | x | x | -15%
COC(=O)Cc1[nH]nc2c1C(c1cccc(OC)c1OC)C(C#N)=C(N)O2 (stereo not drawn)
  -5% | 4% | -5% | 7% | 14% | -2.8% | 2% | u
CCN(CCNC(=O)c1cccc(N2CCCC2=O)c1)c1ccccc1
  0% | -3% | -12% | 2% | 18% | -5.4% | -2%[46.1 µM] | 0%
COc1ccccc1C(=O)NC(=S)Nc1ccc(N2CCCC2)cc1
  u | 0% | 7% | -15% | 34% | -4.2% | -11% | 20%
Cc1cc(C(F)(F)F)cc(NNC(=O)NC(=O)c2c(F)cccc2Cl)n1
  x | 0% | 8% | u | -5% | x | 7.1µM* | -11%
CCOC(=O)c1c(C)[nH]c(C)c1S(=O)(=O)N(C)CC(=O)Nc1ccc(C)cc1Br
  10% | x | x | -19%[46.1 µM] | x | -2.1% | x | 12%
CCCC(c1nnnn1Cc1ccc2c(c1)OCO2)N1CCC(C(N)=O)CC1 (stereo not drawn)
  x | 0% | 0% | -16% | 2% | x | -1%[46.1 µM] | 18%
Cc1ccc(OCC(=O)NCCC2=CCCCC2)cc1
  8% | -33% | -28% | 0% | x | -1.2% | u | -9%
COc1cccc(N(CC(=O)NC(C)(C)C)C(=O)C2CSC(=O)C2)c1 (stereo not drawn)
  3% | 0% | -7% | 9% | -1% | 4.4% | -4% | -17%
Cc1cccc(Nc2ncnc3c2cnn3C)c1
  x | 0% | -10% | x | -7% | x | x | 12%
CC(C)N1CC2=C(C1=O)C(c1ccc(O)cc1)NC(=O)N2C (stereo not drawn)
  x | -3% | x | u | -7% | x | 9%[46.1 µM] | 3%
COc1ccc(C(=O)NCC(c2ccc(N(C)C)cc2)N2CCc3ccccc32)c(OC)c1 (stereo not drawn)
  7% | x | x | -6%[46.1 µM] | x | -4.8% | x | -22%
Cc1ccc(S(=O)(=O)c2c(C)cc(C)nc2N2CCCC2)cc1
  x | 4% | -8% | -17%[46.1 µM] | 1% | x | u | -14%
CC1(C)CC(=O)/C(=C(/O)Cc2ccccc2)C(=NCCc2ccccc2)C1
  -3% | 0% | -3% | 2% | 1% | 3.1% | 1% | -15%
COc1ccc(-c2cc3nc(C)c(CCC(=O)N4CCN(c5ccccn5)CC4)c(C)n3n2)c(OC)c1
  x | -1% | x | 24%[46.1 µM] | 8% | x | 6%[46.1 µM] | u
CCC(Sc1nc2ccncc2[nH]1)C(=O)Nc1ccc(C)c(Cl)c1 (stereo not drawn)
  x | 8% | 11% | x | -5% | x | x | -12%
O=C(COC(=O)CCCN=C1NS(=O)(=O)c2ccccc21)NNC(=O)c1ccccc1
  x | x | x | 5% | -10% | x | 18% | 0%
Cc1n(CC(O)COC2CCCCC2)c2ccccc2[n+]1C (stereo not drawn)
  -9% | 16% | 2% | 10% | -8% | -0.3% | -2% | -16%
CN1CCN(S(=O)(=O)c2ccc(-c3ccc(S(=O)(=O)N4CCN(C)CC4)cc3)cc2)CC1
  -5% | 3% | -2% | x | x | 0.4% | -5% | x
Cn1c(=O)cc(OCC(=O)NC2CCCCC2)c2ccccc21
  11% | 4% | -3% | -15% | -4%[3.69 µM] | 12% | -21% | 8%
COc1cccc(/C=C/C(=O)OCC(=O)Nc2ccc(Cl)c(S(=O)(=O)N(C)C)c2)c1OC
  x | -1% | x | 1% | 9% | x | u | -10%
CC1(c2ccccc2)NC(=O)N(CC(=O)NC(=O)NC2CCCC2)C1=O (stereo not drawn)
  -6% | 1% | 10% | -13% | 4% | 8.6% | -1% | -31%
O=C(COc1ccc(Cl)cc1)Nc1ccc2oc(=O)ccc2c1
  x | 6% | -4% | -26% | 10% | x | 6%[46.1 µM] | -6%
CC(=O)Nc1nc(C)c(-c2nc3ccc([N+](=O)[O-])cc3[nH]2)s1
  x | 1% | -3% | x | -13% | x | x | 1%
CC(C)C(=O)Nc1cccc(NC(=S)NC(=O)c2cccs2)c1
  x | 1% | 12% | 8% | -6% | x | 25% | 32%[activator]
CCC(Cc1ccccc1)NC(=O)CN1C(=O)CSc2ncccc21 (stereo not drawn)
  3% | 4% | 1% | x | 6% | 3.0% | x | -17%
CC(C)OCCCNC(=O)c1cn(C)c2ccc(S(=O)(=O)N3CCCC3)cc2c1=O
  x | 1% | -11% | 20%[46.1 µM] | 7% | x | 0%[46.1 µM] | 9%
N#Cc1c(N2C(=O)Nc3ccccc3N2O)sc2c1CCCC2
  x | -7% | x | 0% | 0% | x | 4%[46.1 µM] | 46%[activator]
O=C(c1cccc(S(=O)(=O)N2CCOCC2)c1)N1CCN(c2ccc(F)cc2)CC1
  u | -5% | -2% | -2% | 20% | -1.4% | 4% | -28%
CSc1nc(NCc2ccco2)c2ccccc2n1
  0% | -13% | -15% | 2% | -12% | -1.5% | -22% | u
Cc1cc(O)ccc1NC(=O)c1ccccc1
  u | -3% | 1% | 4% | 2% | 1.8% | 23% | x
COc1cc(C(=O)NCCc2ccc(S(N)(=O)=O)cc2)cc(OC)c1OC
  -11% | -1% | u | 1% | 6% | 3.9% | 1% | 4%
CCN(CC)S(=O)(=O)c1cc(OC)c(C)cc1C
  x | -1% | -2% | 15%[46.1 µM] | 0% | x | -3%[46.1 µM] | -7%
CCSc1ncc(Cl)c(C(=O)N(Cc2ccc(N(C)C)cc2)Cc2ccco2)n1
  -22% | x | x | -11%[46.1 µM] | x | -6.1% | -4%[46.1 µM] | u
CC(C)(C)NC(=O)C(c1ccncc1)N(C(=O)C1CSC(=O)C1)c1ccccc1 (stereo not drawn)
  x | 0% | 2% | x | -1% | x | x | 1%
CCCCNS(=O)(=O)c1ccc(OC)c(Cl)c1Cl
  14% | -8% | 11% | 15% | -12%[3.69 µM] | -2.5% | -4% | -26%
CC(C)(C)NC(=O)c1oc2ccccc2c1COc1ccccc1
  12% | -36% | u | -1% | 0% | 1.2% | u | 0%
Cc1cc(C)c(C#N)c(Sc2nnnn2-c2ccccc2)n1
  -9% | 0% | 5% | x | 4% | 5.8% | x | -11%
COc1ccc(NCC(=O)N/N=C/C2CCCCC2)cc1
  x | -2% | 2% | -5%[46.1 µM] | 6% | x | 3%[46.1 µM] | 2%
CNc1nc(-c2ccc3c(c2)CCN3C(=O)c2ccccc2F)cs1
  x | -3% | 8% | x | 0% | x | x | -7%
COc1ccc(C(C)=O)cc1Cn1nc(C)c([N+](=O)[O-])c1C
  x | -3% | x | 1%[46.1 µM] | -1% | x | u | -12%
CCOc1ccc(CNC(=O)c2ccc(NC(=O)C3=CSCCO3)cc2)cc1
  x | -2% | 3% | x | -5% | x | x | 30%[activator]
COc1ccc(CCNc2ncnc3c2cnn3-c2cc(Cl)ccc2C)cc1
  -4% | x | x | u | x | u | x | 18µM*
COc1ccccc1N(C)S(=O)(=O)c1ccc(C(=O)NC(C)(C)C)cc1
  1% | 19% | 8% | u | 1% | 9.2% | u | -7%
CC(C)(C)OC(=O)N1CCC(c2c(C(=O)N3CCN(C(=O)c4ccco4)CC3)cnn2-c2ccccc2)CC1
  -6% | x | x | 0%[46.1 µM] | x | -0.2% | x | -9%
Cc1c(N=Nc2ccc(O)cc2)c(=O)n(-c2ccccc2)n1C
  x | 0% | 20% | -8% | 10% | x | 18%[46.1 µM] | 1%
O=C(c1cccc(Cl)c1)N1CCC(N2CCC(C(=O)N3CCCC3)CC2)CC1
  x | 24% | -9% | x | -1% | x | x | -8%
CC(C)Cn1c(N)c(C(=O)COC(=O)CCc2nc3ccccc3s2)c(=O)n(C)c1=O
  x | -1% | x | u | 8% | x | -22%[46.1 µM] | u
O=C(COC(=O)/C=C/c1ccc(C(F)(F)F)cc1)NC1CC1
  x | -4% | x | 19% | 1% | x | -14% | -11%
CCCC12CN3CC(CCC)(CN(C1)C3c1ccccc1)C2=O (stereo not drawn)
  6% | x | x | -17%[46.1 µM] | x | 1.1% | x | -24%
c1cncc(CNC2=NCCCCC2)c1
  9% | 0% | -4% | u | -7% | -0.8% | 13% | 0%
COC(=O)c1ccc(OCc2nc(N)nc(N3CCOCC3)n2)cc1
  8% | 0% | 6% | 4% | 16% | 3.1% | -2%[46.1 µM] | 4%
COc1ccc(Br)cc1C(=O)Nc1ccc(O)cc1
  -1% | -8% | -37% | -10% | 8% | -5.8% | 25% | x
CCc1ccccc1NC(=O)CC1CS(=O)(=O)CC1CC(=O)Nc1ccccc1CC (stereo not drawn)
  -9% | 2% | -3% | u | 5% | -0.8% | u | -1%
CCc1ccc(NC(=O)c2ccc(F)c(S(=O)(=O)N(C)C3CCCCC3)c2)cc1
  -11% | x | x | u | x | -0.5% | x | u
